# Compound activity as filed in PubChem.
# Rce1 inhib – yeast Ras-converting enzyme inhibition; actives 0.27% (n = 290,000); Q03530; calls only; yeast membranes, quenched prenylated peptide cleavage fluorescence;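 active = fall in fluorescence gain of 50% or more versus controls, with final raw signal at or below 3038400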;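 note: plate controls were neutral control wells for no effect and wells lacking membranes for full effect; tested at 10 µM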
# HIV Env fusion – inhibitors of HIV Env-mediated cell fusion; HeLa-JRFL Env/CEM21 cell fusion, luciferase; inhibition, % at 12.3 µM; actives 1.1% (n = 360,000); AID 651610;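 active = mean replicate inhibition score of at least 50 and every replicate individually at or above 50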;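 note: 0% = plate neutral controls and 100% = maraviroc near 300 nM; one replicate is shown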
# Yeast UUG start – modulators of start codon recognition fidelity in yeast; activity score, % at 18.7 µM; actives 0.13% (n = 350,000); S. cerevisiae UUG-firefly luciferase reporter, luminescence/redox ratio;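 active = replicate mean at a twofold rise or more, about +100% in these data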;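 note: firefly luciferase made from a UUG start codon reports start codon fidelity; reporter light over untreated wells divided by growth signal over untreated wells; some hits fall short of that in this replicate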
# PABP FP inh – PABP-poly(A) binding inhibition. PABP-poly(A) RNA binding, fluorescence polarization. inhibition, % at 35 µM. actives 1% (n = 290,000);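 active = 50% or more with normal probe brightness, or confirmed in later tests; about a fifth of its hits are not listed in these tables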;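 note: calls also rest on retests at 20 µM and on dose response follow-up; controls were probe without protein and protein plus probe with vehicle; some compounds called inactive have numbers as strong as hits; many hits fall short of the cut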
# Target sequence (P11940 whole entry, looked up): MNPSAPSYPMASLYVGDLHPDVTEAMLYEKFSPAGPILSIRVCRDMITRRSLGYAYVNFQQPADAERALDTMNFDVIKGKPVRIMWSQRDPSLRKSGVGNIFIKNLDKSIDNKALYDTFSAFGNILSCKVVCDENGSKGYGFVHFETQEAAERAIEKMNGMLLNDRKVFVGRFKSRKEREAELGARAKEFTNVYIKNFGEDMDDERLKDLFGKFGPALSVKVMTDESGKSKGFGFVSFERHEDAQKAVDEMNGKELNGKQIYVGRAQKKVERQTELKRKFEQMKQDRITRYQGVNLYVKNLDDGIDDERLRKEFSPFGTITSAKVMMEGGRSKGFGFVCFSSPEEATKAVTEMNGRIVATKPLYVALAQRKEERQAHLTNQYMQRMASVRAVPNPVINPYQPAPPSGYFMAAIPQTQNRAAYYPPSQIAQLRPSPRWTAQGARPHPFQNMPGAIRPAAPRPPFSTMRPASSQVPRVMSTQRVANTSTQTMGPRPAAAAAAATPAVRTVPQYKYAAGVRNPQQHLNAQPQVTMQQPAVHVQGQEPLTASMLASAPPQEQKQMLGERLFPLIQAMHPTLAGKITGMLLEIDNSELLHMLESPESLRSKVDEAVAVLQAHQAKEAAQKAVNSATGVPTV
# CSC inhib – cancer stem cell inhibition. cancer stem cell-like cells viability, luminescence. inhibition, % at 7.5 µM. actives 1.1% (n = 300,000);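 active = mean at 75% or more and at least half the replicates too; tested in HMLE shEcad cells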;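 note: 0% = median of negative and 100% = median of positive control wells; the first replicate is given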
# eIF4H inh – inhibitors of RNA binding by human eIF4H. Q15056. inhibition, % at 35 µM. actives 0.94% (n = 290,000). eIF4H fluorescence polarization binding assay;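 active = 50% or more with normal probe brightness, or confirmed in later tests; about a fifth of its hits are not listed in these tables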;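 note: calls also rest on retests at 20 µM and on dose response follow-up; 0% = protein and probe with vehicle and 100% = probe without protein; strong numbers were not always called active; many hits fall short of the cut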
# MT1-MMP act inh – blocks activation of human MT1-MMP. P50281. actives 0.061% (n = 360,000). AID 651647. HT1080 RFP-PRO-GFP cells, GFP/RFP ratio fluorescence, overnight; percent of plate control window, DMSO zero. GFP/RFP ratio change, % at 20 µM;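 active = GFP/RFP ratio change of at least 30% with cell ATP level not reduced by more than half and red fluorescence within 50% of control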; note: strong numbers were not always called active
#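 Assay system: HT1080 RFP-PRO-GFP cells. Benchmarks: DMSO vehicle wells and RFP-L50D-GFP reporter cell wells. Times: overnight cell settling, then overnight compound exposure, 37 °C, 5% CO2. Compound: 20 µM single dose, 1% DMSO. Read-out basis: GFP/RFP fluorescence ratio.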
# MT1-MMP act inh RFP – also measured in MT1-MMP act inh; calls as there; RFP signal change, %; measured here: RFP expression control read;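 0 = vehicle wells; hits needed this value within 50% of zero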
# Numbers without * were called inactive; i = inactive; · = not tested or not shown; + = active, no number; & = joins results of further samples. The list is partial; the hit share may differ from the screen's.
SMILES,Rce1 inhib,HIV Env fusion,Yeast UUG start,PABP FP inh,CSC inhib,eIF4H inh,MT1-MMP act inh,MT1-MMP act inh RFP
O=S(=O)(Nc1c(S(=O)(=O)c2ccccc2)c2nc3ccccc3nc2n1C1CCCCC1)c1ccccc1,i,22,-10,0,106*,12,-7,-6
COC(=O)c1ccc(CNCC(O)COc2ccc(-c3ccccc3)cc2)cc1 (stereo not drawn),i,6,-9,-8,3,-15,6,0
Cc1ccc(NC(=O)c2c([N+](=O)[O-])cnn2C)cc1C,i,-51,8,4,-9,-1,-3,1
CC1(C)N=C(N)N=C(N)N1c1cccc(CC(=O)Nc2ccccc2)c1,·,-9,-10,·,·,·,-3,-1
Cn1c(CNC(=O)c2ccc(F)cc2)nc2ccccc21,i,-8,-8,0,2,-3,2,2
NC(=O)c1ccc(NC(=O)Nc2ccc3c(c2)OCO3)cc1,i,-15,-10,-9,4,-15,1,0
Cc1ccsc1C(=O)NCC(=O)OCc1ccccc1,i,-14,-11,-1,-1,-16,-4,3
CCOc1ccc(N2C(=O)Nc3ccccc3C2(O)C(=O)NCc2ccc(C)cc2)cc1 (stereo not drawn),i,10,·,1,-9,-2,7,5
COc1ccc(CNC(=O)Cn2nnc(-c3ccc(NC(=O)C4CCCCC4)cc3)n2)cc1,i,-27,·,-12,8,-3,3,3
N#Cc1c2n(c(=S)n(-c3ccccc3[N+](=O)[O-])c1=O)CCCCC2,i,18,·,11,-7,6,1,3
CCOC(=O)Cc1csc(NC(=S)NC(=O)c2cccc([N+](=O)[O-])c2)n1,i,8,·,6,-5,2,3,1
CCOC(=O)c1sc(NC(C)=O)nc1C,·,·,-13,1,1,17,1,2
CCOc1cc(/C=N/NC(=O)Cn2nc([N+](=O)[O-])cc2C)cc(Br)c1OCc1ccccc1C,i,33,-15,3,-9,-1,8,-2
S=C(NCc1ccco1)Nc1ccc(Br)cc1Cl,i,-23,·,6,-8,1,4,-7
O=C(COC(=O)c1ccc([N+](=O)[O-])o1)NCc1ccccc1,·,-6,·,·,-15,·,0,-2
COc1ccc(-c2cnn3cc(-c4cccc(Cl)c4)cnc23)cc1,i,-5,1,-2,-20,19,5,1
O=C(/C=C/c1c(F)cccc1Cl)c1ccc(F)cc1,i,·,-17,-14,43,-4,-5,-6
CN1C(=O)CC(N2CCN(CC(N)=O)CC2)C1=O (stereo not drawn),i,-4,-16,4,-1,3,-2,1
O=C(Nc1ccon1)Nc1cccc(Cl)c1Cl,i,-65,1,-4,-2,3,0,-2
COc1cc(/C=N/Nc2ncc(C(F)(F)F)cc2Cl)cc(OC)c1O,i,-5,·,10,-6,-11,4,2
Cc1c(NCc2nc3ccccc3[nH]2)c(=O)n(-c2ccccc2)n1C,i,·,-22,-6,3,0,-2,3
CCc1nc2c(OCCC3CCCCC3)cccn2c1N(C=O)Cc1ccc(OC)cc1,·,28,-33,·,·,·,-13,-15
O=C(COC(=O)CSc1nnc(-c2ccc(Cl)cc2)o1)Nc1cc(Cl)ccc1Cl,i,-1,-7,-5,-12,9,5,3
O=C(NCCc1cccc(F)c1)/C(=C/c1cccnc1)NC(=O)c1ccccc1,i,-14,·,-4,0,22,-2,4
CC(OC(=O)Cc1c(F)cccc1Cl)C(=O)NCCC1=CCCCC1 (stereo not drawn),i,23,·,-4,-2,-8,5,8

# The last 4 records of the part above open the next one:
SMILES,Rce1 inhib,HIV Env fusion,Yeast UUG start,PABP FP inh,CSC inhib,eIF4H inh,MT1-MMP act inh,MT1-MMP act inh RFP
CCc1nc2c(OCCC3CCCCC3)cccn2c1N(C=O)Cc1ccc(OC)cc1,·,28,-33,·,·,·,-13,-15
O=C(COC(=O)CSc1nnc(-c2ccc(Cl)cc2)o1)Nc1cc(Cl)ccc1Cl,i,-1,-7,-5,-12,9,5,3
O=C(NCCc1cccc(F)c1)/C(=C/c1cccnc1)NC(=O)c1ccccc1,i,-14,·,-4,0,22,-2,4
CC(OC(=O)Cc1c(F)cccc1Cl)C(=O)NCCC1=CCCCC1 (stereo not drawn),i,23,·,-4,-2,-8,5,8
COC(=O)c1ccc(S(=O)(=O)N2Cc3ccccc3C2)cc1,i,13,·,-5,15,1,1,3
CCOc1ccc(N2C(=O)c3cccnc3C2Nc2ccc(C)c(C)c2)cc1 (stereo not drawn),·,-14,-5,3,-13,2,2,6
COc1cc(CNCCc2c[nH]c3ccccc23)ccc1OCc1ccc(F)cc1,i,·,15,-7,+,-5,-4,-10
Cc1ccc(Cl)c(OCC(=O)OCC(=O)NC2CCCc3ccccc32)c1 (stereo not drawn),i,14,-25,14,-9,14,1,4
CC1CCN(C(=O)/C(=C\c2ccccc2F)NC(=O)c2ccccc2)CC1,i,1,-1,7,·,-7,1,-1
Cc1cccc(-n2c(C)cc(C(=S)N3CCOCC3)c2C)c1C,i,-15,-15,13,15,2,-1,1
CCOc1ccc(-c2nc(N)ncc2Oc2ccccc2Br)c(O)c1,i,·,-19,2,·,2,-11,-13
C/C=C/c1ccc(OCCCCN2CC(C)CC(C)C2)c(OC)c1 (stereo not drawn),i,27,1,2,47,3,4,4
O=C(Nc1cccc2ccccc12)NC1CC1,·,22,-8,·,·,·,-3,-4
CN(C)/N=C1\CCS(=O)(=O)c2sccc21,i,3,·,-2,-21,4,5,-1
N#CCC(=O)N/N=C/c1cc([N+](=O)[O-])ccc1N1CCOCC1,i,25,·,-10,-7,9,0,1
Nc1nc(NCc2ccccc2)nc(-c2ccccc2)n1,i,-75,-18,11,1,3,5,8
COC(=O)C[C@H]1C[C@@H]2c3cc(NS(=O)(=O)c4ccc(OC)cc4)ccc3O[C@@H]2[C@H](CO)O1,·,14,-6&23,·,·,·,2,0
CC1(C)Cc2c(C#N)c(NCCO)nc(-c3ccco3)c2CO1,i,2,7,10,-4,12,-2,2
O=C(NNS(=O)(=O)c1ccc(F)cc1)c1ccccc1O,i,2,-13,-7,-7,-1,1,1
Cc1c(C(=O)N2CCOCC2)oc2c1C(=O)CC(C)(C)C2,i,-51,-14,-3,-1,-5,-2,-2
CCOc1ccccc1Nc1cc(C)nc2nc(C)nn12,i,-12,-22,3,-7,-1,1,4
CCOc1cc(/C=N/NC(=O)CNc2cccc(C)c2)ccc1OC(=O)c1ccccc1,i,·,-9,0,-2,5,1,3
O=C(NC1CCCCC1)c1ccc2c(=O)n(CC3CCCO3)c(=O)[nH]c2c1 (stereo not drawn),i,-44,-8,-11,-5,-1,8,1
O=C(Nc1ncc(Cc2ccccc2)s1)C1=NCCN1,i,-18,-27,-8,1,11,6,7
CCN(CC)C(=O)Cn1cc(S(=O)(=O)CC(=O)Nc2ccc3c(c2)OCCO3)c2ccccc21,i,-17,·,-3,13,2,0,-2
O=C1OCCC1=CN1CCCCC1,·,10,-22,·,·,·,1,3
CCN1C(=O)N[C@@H](c2cccc(C(F)(F)F)c2)[C@@H](C(=O)OC)[C@H]1C,i,9,0,·,-7,·,-1,2
O=C(CCN1C(=O)C2C3C=CC(C4CC34)C2C1=O)Oc1cccc2cccnc12 (stereo not drawn),i,4,-14,-3,7,5,0,5
O=C(NCCC(F)(F)F)c1cccc2c(-c3ccc(F)c(F)c3)coc12,·,5,9,·,·,·,0,-7

# Taken from above.
# O=C(COC(=O)c1ccc([N+](=O)[O-])o1)NCc1ccccc1 @ MT1-MMP act inh RFP: -2
# COC(=O)c1ccc(S(=O)(=O)N2Cc3ccccc3C2)cc1 @ MT1-MMP act inh: 1
# CCOc1ccc(N2C(=O)c3cccnc3C2Nc2ccc(C)c(C)c2)cc1 (stereo not drawn) @ CSC inhib: -13
# CCc1nc2c(OCCC3CCCCC3)cccn2c1N(C=O)Cc1ccc(OC)cc1 @ MT1-MMP act inh RFP: -15
# O=C(CCN1C(=O)C2C3C=CC(C4CC34)C2C1=O)Oc1cccc2cccnc12 (stereo not drawn) @ MT1-MMP act inh: 0
# CCOc1ccc(N2C(=O)Nc3ccccc3C2(O)C(=O)NCc2ccc(C)cc2)cc1 (stereo not drawn) @ CSC inhib: -9
# Cc1cccc(-n2c(C)cc(C(=S)N3CCOCC3)c2C)c1C @ PABP FP inh: 13

# Going on with the list.
SMILES,Rce1 inhib,HIV Env fusion,Yeast UUG start,PABP FP inh,CSC inhib,eIF4H inh,MT1-MMP act inh,MT1-MMP act inh RFP
COc1ccc(CN2CCN(c3ccccn3)CC2)c(OC)c1,i,3,-9,19,8,3,4,3
Cc1ccc(-c2nnc3ccc(SCC(=O)NCc4ccco4)nn23)cc1,i,9,-13,2,-9,-5,0,-1
Cc1ccc(S(=O)(=O)N2[C@@H](c3ccc(Cl)cc3)C(C(=O)O)=CC[C@H]2c2ccc(Cl)c(Cl)c2)cc1,·,28,-5,·,6,·,-5,-7
O=C(Nc1ccccc1Cl)c1cccc(NC(=O)c2cccs2)c1,i,-16,-12,-3,12,-10,0,-4
CCC(=O)Nc1cccc(C(=O)/C=C/c2ccccc2)c1,i,·,-10,-4,-20,-9,·,·
S=C(NCc1ccccc1)NCc1ccccc1,i,·,-35,-11,14,-13,0,-1
COc1cc([N+](=O)[O-])ccc1NC(=S)NCc1ccccn1,i,13,-26,1,-9,1,-6,1
Cc1ccc(O)c(C(=O)c2cnc3c(c2)c(C)nn3-c2ccccc2)c1,i,·,·,-10,39,-2,-1,1
CCc1ccccc1NC(=O)CN(C)C(=O)Cn1cc(C(F)(F)F)cc(Cl)c1=O,i,-3,·,37,-12,4,1,0
COc1cccc(C(=O)NNC(=O)CCC(=O)O)c1,i,7,·,9,-20,3,-2,3
NC(=O)CCN1CCN(C(=O)c2ccc3nc(Cc4cccc(Cl)c4)oc3c2)CC1,i,-3,-9,-1,20,0,1,0
COC(=O)CC1COc2ccccc2N1C(=O)c1ccc(OC)cc1 (stereo not drawn),i,-26,11,-1,-10,3,10,7
O=C(COC(=O)/C=C/c1ccc2c(c1)OCO2)Nc1ccccc1,i,-1,·,-14,-10,-14,3,5
Oc1c(Br)cc(Br)cc1/C=N/c1nccs1,·,·,-20,·,0,·,-19,9
CCN(CC)S(=O)(=O)c1ccc(NC(=O)c2ccc(Sc3nncn3C)c([N+](=O)[O-])c2)cc1,i,-1,·,1,3,-16,1,-1
Cc1ccnc(N2CCC(C(=O)NNC(=O)c3ccccc3)CC2)n1,i,·,-14,5,-15,5,3,3
CN1CCN(C(=S)SCC(=O)N2CCCc3ccccc32)CC1,i,8,-16,-4,10,2,-8,-3
CC12C=CC(=O)C=C1CCC1C3CCC(O)(C(=O)CO)C3(C)CC3OC312 (stereo not drawn),i,-32,-4,-12,-20,-10,1,3
O=C1CC(c2ccccc2)NC(=O)N1 (stereo not drawn),i,·,-8,2,15,-5,-6,0
CC(OC(=O)c1cccc(S(=O)(=O)N2CCCCC2)c1)C(=O)NCC1CCCCC1 (stereo not drawn),·,1,-3,·,·,·,-1,-3
C=COCCCNc1ncnc2sc(-c3ccccc3)cc12,i,25,10,-7,11,0,-3,-24
O=C(N/N=C/c1ccncc1)C1C2CCCCCCC21 (stereo not drawn),i,-8,-15,-2,-2,-10,5,3
CCCNC(=O)C1(C)CCCN(C(=O)c2ccc(F)cc2Cl)C1 (stereo not drawn),·,-21,-11,·,·,·,4,6
COc1ccc2c(c1)[nH]c1c(=O)n(/N=C/c3ccc(OC)c(CN4CCCC4)c3)cnc12,i,9,2,-13,-22,-11,5,2
N#Cc1c(-c2ccccc2)nc(SCC(=O)N2c3ccccc3Sc3ccccc32)[nH]c1=O,i,1,·,26,54,4,1,3
CS(=O)(=O)N(CC(=O)NCC1CCCO1)c1cccc(Cl)c1 (stereo not drawn),i,3,·,-10,-8,-5,-4,-10
CCOc1ccc(C(=O)N2CCN(c3cccc(C)c3C)CC2)cc1,i,14,-11,10,8,0,0,1
O=C(NCCn1cc(SCC(=O)N2CCOCC2)c2ccccc21)c1c(F)cccc1F,i,·,13,-4,2,1,-5,-1
Cc1ccc(C(=O)NC(=S)N(C)C2CCCCC2)cc1Br,i,0,-20,2,23,1,7,-3
Nc1ncn(C23CC4CC(CC(C4)C2)C3)n1,i,-131,-11,-2,0,20,1,0
